Screening data: PubChem, Broad Institute
Vaccinia inh: blocks a specific stage of Vaccinia orthopoxvirus infection. Vaccinia-infected cells, mCherry/Venus stage reporter fluorescence; hits give low values; some inactives read as strong as hits. activity change (mCherry), % (concentration not given with the values). 89,000 compounds, 0.01% hits;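 active = mCherry past -33% and 40 or more points under the early reporter, replicates agreeing; inconclusive = past -33% without that gap or agreement; tested in A549 cells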;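 note: scaled between vehicle wells and reference inhibitor wells; 23 nL library stock went into each well; one replicate is shown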
Vaccinia inh Venus: further read-out of Vaccinia inh, marked with its call; activity change (Venus), %; measured here: Venus reporter, other viral stage;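 negative = less Venus signal; first of two replicates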
The depositor's hits bear a star; u = inconclusive; x = not tested or not shown.

Results follow in this order: Vaccinia inh, Vaccinia inh Venus
- COCCOC(=O)N1C(=O)[C@@]2(c3cc(C#CCC(C(=O)OC)C(=O)OC)ccc31)[C@H](C(N)=O)[C@H]1C(=O)O[C@H](c3ccccc3)[C@H](c3ccccc3)N1[C@@H]2c1ccc(OCCO)cc1
    10, 4
- O=C(C1CCOCC1)N1CC[C@@H]2[C@H](CO)Nc3ccc(Br)cc3[C@@H]21
    -30, -19
- O=C(C[C@H]1C[C@H]2c3cc(NC(=O)C4CCOCC4)ccc3O[C@H]2[C@H](CO)O1)NCc1cc(F)ccc1F
    8, 7
- CN(C)C(=O)[C@@H]1[C@@H](CO)[C@@H]2Cn3c(ccc(C4=CCCC4)c3=O)[C@H]1N2C
    17, 7
- O=C(C[C@H]1C=C[C@H](NC(=O)CN2CCOCC2)[C@@H](CO)O1)NCc1cccc(F)c1
    3, 10
- CCC(=O)N1CC(=O)N2[C@H](C1)[C@@H](c1ccc(-c3ccc(C#N)cc3)cc1)[C@@H]2CO
    1, 21
- CC(C)NC(=O)N(C)C[C@@H]1OCCCC[C@H](C)Oc2ccc(NC(=O)c3ccccc3)cc2C(=O)N([C@@H](C)CO)C[C@@H]1C
    -1, -5
- C[C@H](CO)N1C[C@H](C)[C@@H](CN(C)C(=O)C2CCOCC2)Oc2cc(C#Cc3ccncc3)ccc2S1(=O)=O
    -11, 0
- COc1ccc(C(=O)Nc2ccc3c(c2)C(=O)N(C)C[C@@H](OC)[C@H](C)CN(C)[C@H](C)CO3)cc1
    3, 4
- COc1ccc2c3c(n(C)c2c1)[C@@H](CO)N(C(=O)C1CCOCC1)CC31CN(C(=O)C2CC2)C1
    16, 11
- C[C@@H]1CN([C@H](C)CO)C(=O)CCCn2nncc2CO[C@@H]1CN(C)S(=O)(=O)c1cccc(C#N)c1
    2, 1
- COCC(=O)N1CC2(CN(Cc3cccnc3)C2)c2c(n(C)c3cc(OC)ccc23)[C@H]1CO
    12, -2
- CC(=O)N1CC2(C1)[C@H](c1ccccc1)[C@H](CO)N2C(=O)c1cnccn1
    0, 6
- C[C@@H]1CN([C@@H](C)CO)C(=O)c2cc(NC(=O)C3CCCCC3)ccc2O[C@@H](C)CCCCO[C@@H]1CN(C)C(=O)Nc1ccc2c(c1)OCO2
    -4, -4
- C/C=C/c1ccc([C@@H]2[C@H]3CN(C(=O)Cc4cccnc4)CCCCN3[C@H]2CO)cc1
    6, 4
- O=C(C[C@H]1C[C@H]2c3cc(NC(=O)Nc4ccccc4)ccc3O[C@H]2[C@H](CO)O1)NC1CCCCC1
    7, 8
- C[C@H]1CN([C@@H](C)CO)C(=O)c2cc(-c3cccc(F)c3)cnc2O[C@H]1CN(C)C(=O)C1CCOCC1
    6, 6
- C[C@H]1CN([C@@H](C)CO)S(=O)(=O)c2ccc(-c3ccccc3)cc2O[C@H]1CN(C)S(C)(=O)=O
    -1, -3
- COc1ccc(S(=O)(=O)N(C)C[C@@H]2Oc3ccc(NC(=O)NC(C)C)cc3CC(=O)N([C@H](C)CO)C[C@H]2C)cc1
    22, 14
- C/C=C/c1ccc([C@@H]2[C@H](CO)N(C(C)=O)C23CN(C(=O)c2ccc(F)cc2)C3)cc1
    7, 12
- COc1ccc(S(=O)(=O)Nc2ccc3c(c2)C(=O)N([C@@H](C)CO)C[C@@H](C)[C@@H](CN(C)S(=O)(=O)c2ccc(C)cc2)OCCCC[C@@H](C)O3)cc1
    -9, -11
- C[C@H](CO)N1C[C@H](C)[C@H](CN(C)C(=O)NC2CCCCC2)Oc2ncc(-c3ccccc3F)cc2C1=O
    -3, -6
- Cc1ccccc1CN(C)C[C@@H]1OCc2cnnn2CCCC(=O)N([C@@H](C)CO)C[C@@H]1C
    8, 9
- C[C@H]1CN([C@@H](C)CO)C(=O)c2cc(NS(=O)(=O)c3ccc(Cl)cc3)ccc2O[C@H]1CN(C)Cc1ccncc1
    19, 7
- C/C=C/c1ccc([C@@H]2[C@@H](CO)N(C(=O)C3CCCC3)C23CN(C(=O)NC(C)C)C3)cc1
    -2, 7
- CC(C)CC#Cc1cnc2c(c1)C(=O)N([C@@H](C)CO)C[C@H](C)[C@H](CN(C)C(=O)c1cccnc1)O2
    19, 9
- C[C@@H]1CN([C@@H](C)CO)C(=O)c2cc(/C=C/c3ccccc3)cnc2O[C@@H]1CN(C)Cc1ccc2c(c1)OCO2
    -31, -21
- C[C@H](CO)N1C[C@H](C)[C@@H](CN(C)C(=O)c2ccccc2)OCCCC[C@H](C)Oc2ccc(NC(=O)C3CCCCC3)cc2C1=O
    6, 4
- CC(C)NC(=O)N(C)C[C@@H]1OCCCC[C@H](C)Oc2ccc(NC(=O)Nc3ccc(F)cc3)cc2C(=O)N([C@@H](C)CO)C[C@H]1C
    1, 2
- N#C[C@@H]1[C@H](c2ccc(C#CCC3CCCC3)cc2)[C@H](CO)N1C(=O)CN1CCOCC1
    -26, -20

Fetched one by one from the list above (2):
Results follow in this order: Vaccinia inh, Vaccinia inh Venus
- CC(C)NC(=O)N(C)C[C@@H]1OCCCC[C@H](C)Oc2ccc(NC(=O)Nc3ccc(F)cc3)cc2C(=O)N([C@@H](C)CO)C[C@H]1C
    1, 2
- COCCOC(=O)N1C(=O)[C@@]2(c3cc(C#CCC(C(=O)OC)C(=O)OC)ccc31)[C@H](C(N)=O)[C@H]1C(=O)O[C@H](c3ccccc3)[C@H](c3ccccc3)N1[C@@H]2c1ccc(OCCO)cc1
    10, 4

Continuation.
Results follow in this order: Vaccinia inh, Vaccinia inh Venus
- Cc1ccccc1S(=O)(=O)N1C[C@H](O)COC[C@H]2O[C@@H](CC(=O)O)CC[C@@H]21
    0, 5
- CCC(=O)N1CC2(C1)CN(Cc1cccc(OC)c1)[C@H](CO)c1[nH]c3cc(OC)ccc3c12
    27, 13
- CCC(=O)N(C)C[C@H]1Oc2ncc(C#CC(C)(C)O)cc2C(=O)N([C@H](C)CO)C[C@@H]1C
    23, 10
- C[C@@H]1CN([C@H](C)CO)C(=O)c2cc(NC(=O)CCC(F)(F)F)ccc2O[C@@H](C)CCCCO[C@H]1CN(C)C(=O)Nc1ccc(C(F)(F)F)cc1
    -3, -9
- N#C[C@@H]1[C@@H](c2ccccc2-c2ccccc2F)[C@H](CO)N1C(=O)c1cccc(F)c1
    -5, 4
- CC(C)C#Cc1ccc2c(c1)O[C@H](CN(C)Cc1cncnc1)[C@@H](C)CN([C@H](C)CO)S2(=O)=O
    -23, -15
- C[C@H](CO)N1C[C@H](C)[C@H](CN(C)Cc2ccccc2C(=O)O)Oc2cc(C#CC3CCCC3)ccc2S1(=O)=O
    -6, 1
- CC(=O)N(C)C[C@H]1Oc2cc(C#CC3(O)CCCC3)ccc2S(=O)(=O)N([C@H](C)CO)C[C@@H]1C
    5, 3
- C[C@H](CO)N1C[C@H](C)[C@@H](CN(C)C(=O)C2CCC2)Oc2ncc(-c3cccc(C#N)c3)cc2C1=O
    17, 9
- Cc1noc(C)c1NC(=O)Nc1ccc2c(c1)C(=O)N(C)[C@H]1CC[C@@H](CC(=O)N(C)C)O[C@@H]1CO2
    5, 6
- COc1ccc(NC(=O)N(C)C[C@H]2Oc3ncc(C#CCC(C)C)cc3C(=O)N([C@H](C)CO)C[C@@H]2C)cc1
    -15, -7
- CCCN(C)C[C@H]1OCCCC[C@H](C)Oc2ccc(NS(=O)(=O)c3ccc(F)cc3)cc2C(=O)N([C@H](C)CO)C[C@H]1C
    -15, -4
- CN(C)CC(=O)N1[C@@H]2Cn3c(ccc(-c4ccccc4)c3=O)[C@H]1[C@@H](C(=O)N1CCCCC1)[C@@H]2CO
    16, 15
- O=C(C[C@H]1CC[C@H](NC(=O)Nc2ccccc2)[C@H](CO)O1)NCc1ccccn1
    2, 5
- O=C(C[C@H]1CC[C@@H]2[C@H](COC[C@@H](O)CN2Cc2ccccc2)O1)NCc1ccccc1Cl
    0, -9
- Cc1noc(C)c1NC(=O)N(C)C[C@@H]1OCCCC[C@H](C)Oc2ccc(NS(=O)(=O)c3ccccc3)cc2C(=O)N([C@@H](C)CO)C[C@H]1C
    24, 7
- C[C@@H]1CN([C@@H](C)CO)S(=O)(=O)c2ccc(-c3cccc(F)c3)cc2O[C@H]1CN(C)S(=O)(=O)c1ccc(F)cc1
    -18, -11
- COc1ccc(S(=O)(=O)N2C[C@@H](O)COC[C@H]3O[C@H](CC(=O)NCc4ccc(Cl)c(Cl)c4)CC[C@@H]32)cc1
    u, x
- C[C@H]1CCCCO[C@H](CN(C)C(=O)Nc2cccc3ccccc23)[C@@H](C)CN([C@@H](C)CO)C(=O)c2cc(NS(C)(=O)=O)ccc2O1
    -3, -6
- O=C(C1CCCC1)N1CC[C@@H]2[C@H]1c1cc(-c3cccc(F)c3)ccc1N[C@@H]2CO
    u, x
- COC(=O)[C@@H]1[C@@H](CO)[C@@H]2Cn3c(ccc(C4=CCCC4)c3=O)[C@@H]2N1C(=O)C1CCCC1
    10, 20
- COc1ccc(NC(=O)N(C)C[C@H]2OCCCC[C@@H](C)Oc3ccc(NC(=O)Nc4ccccc4)cc3C(=O)N([C@H](C)CO)C[C@@H]2C)cc1
    7, 7
- C[C@@H]1CN([C@@H](C)CO)C(=O)c2cc(NS(=O)(=O)c3cn(C)cn3)ccc2O[C@@H](C)CCCCO[C@@H]1CN(C)C(=O)c1ccncc1
    41, 17
- C[C@@H]1CN([C@H](C)CO)C(=O)c2cc(NS(C)(=O)=O)ccc2O[C@H]1CN(C)S(=O)(=O)c1ccc(F)cc1
    2, -1
- CO[C@H]1CN(C)C(=O)c2cc(NS(=O)(=O)c3ccccc3Cl)ccc2OC[C@@H](C)NC[C@@H]1C
    8, 10
- CO[C@H](CN(C)Cc1ccc2c(c1)OCO2)[C@H](C)CN(C(=O)Nc1ccc(F)cc1)[C@@H](C)CO
    -4, -6
- C[C@@H]1CN([C@H](C)CO)C(=O)Cc2cc(NC(=O)CCCCCC(=O)Nc3ccccc3N)ccc2O[C@H]1CN(C)Cc1ccc(Cl)c(Cl)c1
    -8, -6
- CCN1[C@@H]2c3ccc(-c4ccccc4OC)c(=O)n3C[C@@H]2[C@@H](CO)[C@@H]1C(=O)NCc1ccc(F)cc1
    -25, -21
- COc1cccc(S(=O)(=O)N[C@H]2C=C[C@H](CC(=O)NCc3ccc(F)cc3)O[C@H]2CO)c1
    -2, 7
- C[C@H]1CN([C@@H](C)CO)C(=O)c2c(c3ccccc3n2C)-c2ccccc2CO[C@H]1CN(C)Cc1ccc2c(c1)OCO2
    -5, 1

Record cards (already shown). Values in the order: Vaccinia inh | Vaccinia inh Venus
Cc1noc(C)c1NC(=O)Nc1ccc2c(c1)C(=O)N(C)[C@H]1CC[C@@H](CC(=O)N(C)C)O[C@@H]1CO2 across the screens: 5 | 6
C[C@H]1CN([C@@H](C)CO)C(=O)c2cc(-c3cccc(F)c3)cnc2O[C@H]1CN(C)C(=O)C1CCOCC1 across the screens: 6 | 6
CC(C)C#Cc1ccc2c(c1)O[C@H](CN(C)Cc1cncnc1)[C@@H](C)CN([C@H](C)CO)S2(=O)=O across the screens: -23 | -15
N#C[C@@H]1[C@H](c2ccc(C#CCC3CCCC3)cc2)[C@H](CO)N1C(=O)CN1CCOCC1 across the screens: -26 | -20

More records:
Results follow in this order: Vaccinia inh, Vaccinia inh Venus
- O=C(NC1CCCC1)[C@@H]1[C@@H](CO)[C@@H]2Cn3c(ccc(-c4ccncc4)c3=O)[C@@H]2N1CCc1ccccc1
    -12, 4
- C[C@@H]1CN([C@H](C)CO)C(=O)Cc2cc(NS(=O)(=O)c3ccc(F)cc3)ccc2O[C@H]1CN(C)C(=O)Nc1ccc(C(F)(F)F)cc1
    -5, -2
- CC(=O)Nc1ccc2c(c1)C(=O)N(C)[C@H]1CC[C@H](CC(=O)Nc3cccc(C(C)C)c3)O[C@@H]1CO2
    -10, 1
- COCC#Cc1ccc2c(c1)O[C@H](CN(C)C(=O)C1CCOCC1)[C@@H](C)CN([C@H](C)CO)S2(=O)=O
    13, 8
- CN(C)C(=O)c1cccc(-c2ccc3c(c2)[C@H]2[C@H](CCN2C(=O)C2CCOCC2)[C@H](CO)N3)c1
    8, -3
- Cc1ccccc1S(=O)(=O)N1CCCCN2[C@H](C1)[C@H](c1ccc(-c3cccc(F)c3)cc1)[C@@H]2CO
    -34, -25
- C[C@@H]1CCCCO[C@@H](CN(C)S(=O)(=O)c2ccccc2)[C@@H](C)CN([C@H](C)CO)C(=O)c2cc(NC(=O)C3CCCCC3)ccc2O1
    -6, -6
- C[C@@H]1CN([C@H](C)CO)C(=O)c2cc(NC(=O)Nc3ccc(C(F)(F)F)cc3)ccc2O[C@@H](C)CCCCO[C@@H]1CN(C)Cc1ccccc1
    u, x
- CCC(=O)N1C[C@@H]2[C@H](c3ccccc31)[C@@H](CO)N2C(=O)Nc1ccccc1
    0, 9
- O=C(C[C@H]1CC[C@@H](NS(=O)(=O)c2ccccc2)[C@@H](CO)O1)N1CCc2ccccc2C1
    -1, -1
- C[C@H](CO)N1C[C@H](C)[C@@H](CN(C)S(=O)(=O)c2ccc(F)cc2)Oc2c(NC(=O)CCCCCC(=O)Nc3ccccc3N)cccc2C1=O
    14, 5
- Cc1noc(C)c1S(=O)(=O)Nc1ccc2c(c1)C(=O)N([C@@H](C)CO)C[C@H](C)[C@H](CN(C)S(=O)(=O)c1ccc(F)cc1)O2
    20, 15
- CC(C)NC(=O)N(C)C[C@@H]1Oc2ncc(C#CCC3CCCC3)cc2C(=O)N([C@@H](C)CO)C[C@H]1C
    -15, -17
- O=S(=O)(c1cccs1)N1CCCCN2[C@H](CO)[C@H](c3ccc(/C=C/c4ccccc4)cc3)[C@H]2C1
    -31, -20
- NCC[C@H]1CC[C@@H](NC(=O)C2CCCCC2)[C@H](CO)O1
    -3, -3

Already shown: two of the compounds above.
Results follow in this order: Vaccinia inh, Vaccinia inh Venus
- O=C(NC1CCCC1)[C@@H]1[C@@H](CO)[C@@H]2Cn3c(ccc(-c4ccncc4)c3=O)[C@@H]2N1CCc1ccccc1
    -12, 4
- C[C@@H]1CN([C@H](C)CO)C(=O)Cc2cc(NS(=O)(=O)c3ccc(F)cc3)ccc2O[C@H]1CN(C)C(=O)Nc1ccc(C(F)(F)F)cc1
    -5, -2

A portion of the library; rates above refer to the full screens.
